NPYLR7 agonist: activates Aedes aegypti NPYLR7 receptor | HEK293T NPYLR7/Galpha15, GCaMP6s calcium fluorescence | activation, % at 10 µM | 270,000 tested, 0.15% active; in the data active means activation above about 40%;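 further: 0% = vehicle and 100% = reference agonist at the receptor; some compounds past the cut are filed as inactive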
NPYLR7 agonist max-min: further read-out of NPYLR7 agonist, marked with its call; activation, %; measured here: Max-Min RFU normalised activation; some inactives read as strong as hits;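 span of the calcium signal over five minutes; 0% = vehicle and 100% = native peptide agonist; compound fluorescence can raise it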
An asterisk follows results filed as active; & = joins results of further samples.

SMILES | NPYLR7 agonist | NPYLR7 agonist max-min
Clc1ccccc1-c1nc2c(N3CCOCC3)nccc2[nH]1 | -4.3 | -7.6
O=C(C(c1cccnc1)N1CCOCC1)N1C[C@@H]2C3CCC(CC3)[C@@H]2C1 (stereo not given in full) | 2.2 | 0.4
COc1cccnc1NC(=O)c1ccccc1Br | -16.2 | -24.3
COc1ccccc1CN1CCC(CN(CC(C)C)C(=O)c2sccc2C)CC1 | 0.5 | 0.4
CCC(Sc1ncc(S(=O)(=O)c2ccccc2)c(=O)[nH]1)C(=O)Nc1cccc(C(F)(F)F)c1 (stereo not given) | -9.9 | -14.7
Cc1[nH]cnc1-c1nccn1C(CCn1cncn1)c1ccccc1 (stereo not given) | -2.7 | -2.8
CCSC1CCC(NC(=O)N2CCN(c3nccs3)CC2)C1 (stereo not given) | 0.5 | -0.8
Cn1ccnc1C(NC(=O)COc1ccc(F)cc1)c1cccc(F)c1 (stereo not given) | 7.1 | -1.8
CC(C)c1ccc(OCC2c3ccsc3CCN2C(=O)CN(CCN2CCCC2)C(=O)C2CCCC2)cc1 (stereo not given) | -3.2 | 2.2
OCCN(Cc1cccs1)Cc1cc(F)ccc1O | 8.1 | 4.5
Cc1c(F)cc(C(N)=O)cc1NC(=O)c1cc(C)n(-c2ccccc2F)c1C | 9.7 | 7.8
O=C(O)C1=CC(=C(c2ccc(O)c(C(=O)O)c2)c2ccc(O)c(C(=O)O)c2)C=CC1=O | -3.0&7.4 | -11.5&-5.2
O=C(Cc1ccccc1O)NC1CCN(C(=O)C2CCCC2)C1 (stereo not given) | 4.6 | 1.3
Cc1nc2n(n1)CCN(c1ncc(C(F)(F)F)cc1Cl)C2 | 8.7 | 4.7
CC(Nc1ccc([N+](=O)[O-])cc1S(=O)(=O)N1CCOCC1)c1ccccc1 (stereo not given) | 9.0 | 8.3
O=C(NCC1CN(c2cccc(Cl)c2)C(=O)O1)c1cccc(F)c1 (stereo not given) | 1.2 | 4.1
CNc1cncc(-c2cccc(F)c2)n1 | 0.3 | -0.2
Cc1ccnc(CC(C)N(C)C(=O)CCc2ccc(F)c(F)c2)c1 (stereo not given) | 7.5 | 4.4
C=C(C)Cn1c(SCC(=O)CC(=O)OCC)nc2sc3c(c2c1=O)CCC3 | 4.7 | 3.5
CCN(CC)c1ccc(/C=N\NC(=O)COc2nc(C)cc(COC)c2C#N)cc1 | -4.7 | -8.7
O=C(Nc1ccccc1Cl)c1cn(CC2CCCO2)cc2c(=O)n(-c3ccccc3)nc1-2 (stereo not given) | 12.4 | 8.1
C=c1ccn2c(=O)c(=CC3CC=CCC3)c(N)nc2c1 (stereo not given) | -1.9 | -3.4
CCCCCNC1=NCC(c2ccccc2)S1 (stereo not given) | 7.9 | 3.8
Cc1cccc(CS(=O)Cc2coc(-c3ccccc3Cl)n2)c1 (stereo not given) | 6.4 | 4.4
CCN(C(=O)CN1C(=O)NC2(CCC(C)CC2)C1=O)C1CCCCC1 (stereo not given) | 10.3 | 20.5
Cc1cc(C)n(Cc2ccc(NS(=O)(=O)NCc3ccccc3)cc2)n1 | -2.0 | -2.3
Cc1ccc(-n2nc(C(C)(C)C)cc2NC(=O)Nc2ccccc2C(F)(F)F)cc1 | 15.3 | 10.7
CC(=O)Nc1cccc(NC(=O)CSc2nc(=O)n(CCO)c3c2CCCC3)c1 | -2.5 | -10.5
CN1C[C@@H]2CC[C@H](CC1=O)N2C(=O)Cc1c[nH]c(=O)n(C)c1=O | -0.3 | -0.5
CCOC(=O)C1CCN(CC(=O)N2N=C(c3ccc(OC)c(OC)c3)CC2c2ccccc2OC)CC1 (stereo not given) | 13.3 | 16.3
COC(=O)CCCCC(=O)N1CCC(n2c(=O)oc3ccc(F)cc32)CC1 | 2.9 | -0.1
Cc1ccc(S(=O)(=O)Nc2cc(-c3ccccc3)nn2C2CCS(=O)(=O)C2)cc1C (stereo not given) | -1.3 | -2.1
COc1ccc(N2CC(CNS(=O)(=O)c3ccc(C)cc3C)OC2=O)cc1 (stereo not given) | 3.4 | 5.0
COCCNC(=O)c1csc(CSc2nnc(-c3ccco3)n2-c2cc(Cl)ccc2C)n1 | 21.9 | 16.3
O=C(c1cccc2cc[nH]c12)N1CCc2ccccc2C1c1ccc(F)cc1 (stereo not given) | -2.7 | 7.5
O=C(c1cc(F)cc(C(F)(F)F)c1)N1CCN(c2nccc(-c3ccc(Oc4ccccc4)cc3)n2)CC1 | 13.6 | 6.7
Cc1nc2ncnn2c(N2CCN(C(=O)c3ccc4nonc4c3)CC2)c1Cc1ccccc1 | 30.9 | 17.1
CCOc1ccc(C(C2Sc3nc(CC)nn3C2=O)N2CCC(O)CC2)cc1 (stereo not given) | -6.6 | -12.8
COc1cc(OC)cc(N2CCC(Nc3nc(C)ns3)C2)c1 (stereo not given) | 4.3 | 2.6
COC(=O)c1ccccc1CN(CCC(C)C)Cc1cccn1Cc1ccc(F)cc1 | 7.9 | 8.6

4 entries from above, with values under each structure.
Values run as follows: NPYLR7 agonist, NPYLR7 agonist max-min
> COCCNC(=O)c1csc(CSc2nnc(-c3ccco3)n2-c2cc(Cl)ccc2C)n1
  21.9, 16.3
> O=C(c1cccc2cc[nH]c12)N1CCc2ccccc2C1c1ccc(F)cc1 (stereo not given)
  -2.7, 7.5
> O=C(c1cc(F)cc(C(F)(F)F)c1)N1CCN(c2nccc(-c3ccc(Oc4ccccc4)cc3)n2)CC1
  13.6, 6.7
> Cc1nc2ncnn2c(N2CCN(C(=O)c3ccc4nonc4c3)CC2)c1Cc1ccccc1
  30.9, 17.1

The listing continues.
SMILES | NPYLR7 agonist | NPYLR7 agonist max-min
CCCN(CC(=O)N(Cc1cccn1Cc1ccccc1Cl)C1CCCCC1)C(=O)C(C)(C)CCl | -5.1 | -2.2
O=C(Nc1cccc(C(F)(F)F)c1)C12CC3CC(CC(C3)C1)C2 | 1.0 | -0.6
Cc1cc(Cl)ccc1OC(C)c1nnc(SCc2ccc3ccccc3n2)o1 (stereo not given) | -13.2 | -19.0
COc1cc(-c2onc(C)c2C(=O)NCCCN2CCOCC2)cc(OC)c1OC | 2.5 | 14.5
CCc1cn[nH]c1C1CCN(C(=O)c2nnc3nc(C)ccn23)CC1 | 5.6 | 4.1
Cc1cc(C(=O)N2CCC(C(=O)Nc3cccc(-c4nnc(C)s4)c3)CC2)no1 | -6.0 | -6.0
CCOc1nc(Cl)c(C=O)n1-c1ccccc1 | 0.3 | -3.0
CCc1nc2ccc(C(=O)Nc3ccc(OC)c(OC)c3)cn2c1N(CC)C(C)=O | -4.7 | -10.6
Cc1ccc(C(=O)N2CCC(C(Cc3ccccc3)N(C)C(=O)c3cccs3)CC2)cc1C (stereo not given) | -0.2 | -4.4
CCOC(=O)c1cc(-c2ccccc2)sc1NC(=O)c1cccs1 | -2.3 | -3.0
CCCC12CN(C(=O)C(Cc3ccccc3)c3ccccc3)CC1C(=O)NC(=O)N2 (stereo not given) | -2.7 | -10.8
CC(C)n1cc(C2c3[nH]c4ccccc4c3CCN2Cc2cccn2-c2ncccn2)cn1 (stereo not given) | -0.5&11.5 | -1.1&-0.3
COc1ccc(-c2nc(N3CCN(C(=O)c4cccc([N+](=O)[O-])c4)CC3)c3ccccc3n2)cc1 | -0.5 | 9.3
Cc1ccc(N2CCCC2=O)c(C(=O)Nc2cc(F)ccc2C)c1 | 4.2 | 0.2
CC(C)CCNC(=O)CSc1nc2ccccc2o1 | -2.2 | -1.5
O=C(COC(=O)Cc1ccc(F)cc1)Nc1cc(Cl)cc(Cl)c1 | 3.9 | 3.8
O=C(Nc1cccc(NC(=O)C2CC2)c1)NC1CCN(CC2CC2)C1 (stereo not given) | 12.4 | 6.7
N#CCSc1nc(N)c(C#N)c(-c2cccs2)c1C#N | 6.6 | 3.9
O=C(Nc1ccc(N2CCC(Cc3ccccc3)CC2)c(C(=O)NCc2cccnc2)c1)c1ccc(Cl)cc1Cl | 0.8 | 12.6
CCOC(=O)c1cc(C(C)(C)C)n(C2CCN(C(=O)Cc3cccc(F)c3)CC2)n1 | 1.9 | -1.2
COc1cc(OC)c(OC)cc1C=NNC(=S)NCC1CCCO1 (stereo not given) | 1.6 | 0.3
Cc1ccc(CCNC(=O)c2csc(COC(=O)c3ccccc3)n2)cc1 | -6.2 | -13.7
CC(C)c1noc(-c2ccc(N(C)C3CCOCC3)nc2)n1 | 25.0 | 15.3
COC(=O)c1c(C)[nH]c(C(=O)OCC(=O)N(C)C)c1C | -5.9 | -10.0
O=c1c2cc3c(=O)n(-c4ccccn4)ccc3nc2ccn1CCO | 2.1 | 6.0
CCCOCc1ccccc1CNC(=O)N1CC2C3CCC(O3)C2C1 (stereo not given) | -1.0 | 10.1
N#CC1(NC(=O)COc2ccc(Cl)cc2Cl)CCCC1 | -8.0 | -10.8
CCN(C(=O)CNc1ccc(C#N)cc1)c1ccccc1 | 1.4 | 0.6
Nc1ccc(-c2nc3c(Br)cc(N)cc3[nH]2)cc1 | -4.7 | -5.8
O=C(Nc1ccc(OC(F)F)cc1)c1sccc1S(=O)(=O)N1CCOCC1 | 11.4 | 5.4
COCCNC(=O)CN(C)Cc1coc(-c2ccccc2)n1 | 3.5 | 2.6
CC1CCc2c(sc(NC(=O)COc3cccc4ccccc34)c2C#N)C1 (stereo not given) | -5.8 | 10.3
CC(=O)c1ccc(C(=O)N2C[C@H]3CC=C(C)C[C@H]3C2)cc1 | -0.3 | -2.7
N#Cc1ccc(CN(Cc2ccc(C#N)cc2)S(=O)(=O)c2ccc3c(c2)OCCO3)cc1 | 3.7 | 2.4
CC(C)c1nccc(C(=O)NCc2cccnc2N2CCN(C)CC2)n1 | -2.1 | -5.0
Cc1nc2ccc(Cl)cn2c(=O)c1NC(=O)c1c(F)cccc1F | 3.6 | 0.7
OC[C@H]1CCN(Cc2c(Cl)cncc2Cl)C[C@@H]1O | 8.4 | 5.9
C/C(=N\NC(=O)c1cc(-c2cccc([N+](=O)[O-])c2)n[nH]1)c1ccncc1 | 2.3 | 4.0
CC(C)C1=NOC(c2nc(C3CC3)nn2-c2ccc3c(c2)OCCO3)C1 (stereo not given) | 1.2 | -0.6
O=C(Cc1csc(-c2cccs2)n1)Nc1ccc(NS(=O)(=O)c2ccc(F)cc2)cc1 | 0.1 | 1.4

Part of the list above, with two lines to a compound:
Order of values – NPYLR7 agonist | NPYLR7 agonist max-min
> Nc1ccc(-c2nc3c(Br)cc(N)cc3[nH]2)cc1
  -4.7 | -5.8
> COC(=O)c1c(C)[nH]c(C(=O)OCC(=O)N(C)C)c1C
  -5.9 | -10.0
> COCCNC(=O)CN(C)Cc1coc(-c2ccccc2)n1
  3.5 | 2.6
> COc1cc(OC)c(OC)cc1C=NNC(=S)NCC1CCCO1 (stereo not given)
  1.6 | 0.3
> CC(C)c1nccc(C(=O)NCc2cccnc2N2CCN(C)CC2)n1
  -2.1 | -5.0

Later entries:
SMILES | NPYLR7 agonist | NPYLR7 agonist max-min
CC(=O)Nc1cccc(-n2nnnc2SC2CCCc3ccccc32)c1 (stereo not given) | 12.4 | 7.4
CCNC(=O)N(Cc1ccco1)Cc1cc(NC(=O)COC)ccc1N(C)C | 31.9 | 28.3
COc1ccc(OC)c(-c2nc(CN(C)Cc3c(C)noc3C)c(C)o2)c1 | -7.7 | -11.6
CCOC(=O)c1cnc(SCC(=O)NC(CC)CC)nc1N | 9.5 | 1.3
Nc1nonc1-c1noc(Cc2ccccc2)n1 | 0.8 | -0.2
CN(CC(=O)NC(C)(C)C)c1ncnc2scc(-c3ccc(Cl)cc3)c12 | -10.0 | -7.6
CC1(C(=O)NS(=O)(=O)c2cccc(OC(F)F)c2)CCN1C(=O)Cc1ccsc1 (stereo not given) | 0.3 | -1.7
CCC(C)Nc1nc(C)nc2sc(C)cc12 (stereo not given) | 5.7 | 2.4
CC(C)n1cc(CN(Cc2ccc(F)cc2)CC2CCCO2)cn1 (stereo not given) | -7.1 | -6.9
Cc1cccc(C(=O)NC(C(=O)N2CCOCC2)C2CCN(C(=O)c3cccs3)CC2)c1 (stereo not given) | -4.1 | 14.5
CCOC(=O)c1ccc(NC(=O)COc2coc(CN3CCc4ccccc43)cc2=O)cc1 | 1.5 | -0.3
CCc1cccc2sc(N(CCCn3ccnc3)C(=O)c3ccco3)nc12 | -11.5 | -16.0
O=C(CSc1ccccc1)Nc1nnc(SCc2cc(F)ccc2F)s1 | 36.7 | 35.4
N#Cc1ccc(C=CC(=O)c2ccc3c(c2)OCCO3)cc1 | -16.3 | -8.8
Cn1ccc(NS(=O)(=O)c2ccc(S(=O)(=O)N3CCOCC3)cc2)n1 | 11.8 | 18.0
C=CCN(CC1CC(c2ccc(F)cc2)=NO1)C(=O)Nc1ccccc1OC (stereo not given) | -3.9 | 6.2
O=C(O)c1nn(CC2CC2)c2c1CN(C(=O)c1cccc3c1OCC3)CC2 | 0.2 | -4.9
Cn1ccnc1C(NC(=O)C1CCN(S(=O)(=O)c2ccccc2)CC1)c1ccc(F)cc1 (stereo not given) | 8.2 | 11.1
Cc1nc(N)sc1N=Nc1cccc2ccccc12 | 5.3 | 1.7
C=CCOC(CN1CCN(C(=O)Nc2cc(OC)c(OC)c(OC)c2)CC1)c1cccc(OC)c1 (stereo not given) | 29.1 | 11.3

Five compounds picked at random from the list so far, as already listed:
SMILES | NPYLR7 agonist | NPYLR7 agonist max-min
CCCOCc1ccccc1CNC(=O)N1CC2C3CCC(O3)C2C1 (stereo not given) | -1.0 | 10.1
Cc1[nH]cnc1-c1nccn1C(CCn1cncn1)c1ccccc1 (stereo not given) | -2.7 | -2.8
Nc1ccc(-c2nc3c(Br)cc(N)cc3[nH]2)cc1 | -4.7 | -5.8
COC(=O)c1ccccc1CN(CCC(C)C)Cc1cccn1Cc1ccc(F)cc1 | 7.9 | 8.6
O=C(Nc1cccc(C(F)(F)F)c1)C12CC3CC(CC(C3)C1)C2 | 1.0 | -0.6

(further entries)
SMILES | NPYLR7 agonist | NPYLR7 agonist max-min
CC(C)NC(=O)[C@@H]1C[C@@H](N)CN1Cc1cccn1-c1ccccn1 | -10.8 | -8.6
CCOc1ccccc1NC(=O)N1CCc2nc(C)nc(N(C)C)c2C1 | 2.4 | 7.5
O=[N+]([O-])c1cccc(C2Oc3ccccc3C3CC(c4cccnc4)=NN32)c1 (stereo not given) | -0.8 | -2.3
CCCCCCCC(=O)NCC(C)(O)c1cnn(C)c1 (stereo not given) | -0.7 | -5.9

Screens (PubChem BioAssay)

The list is partial (hit frequency here may not be typical).
